Screening results (PubChem BioAssay)
PKD1 inh – PKD1 (human) kinase inhibition; inhibition, %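 (about 10 µM by stock and volumes)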; PKD1 kinase fluorescence polarization assay; hit rate 0.056% among 200,000; AID 797;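 active means inhibition of 50% or more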;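 further: controls were vehicle for no effect and a reference inhibitor for full effect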
HSV augment – increases HSV replication in cells | HSV replication augmentation in cells, fold increase | maximum fold increase | hit rate 0.005% among 220,000;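 active means peak rise of 1.5-fold or more in the series; tested in PC3 cells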;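 further: first round at 10 µM; read as green reporter fluorescence; hits show the peak of a series up to 25 µM; 1 = signal of infected wells without compound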
RGS16-Gao – RGS16-Galphao interaction regulator (human). bead-based flow cytometry RGS16-Galphao binding, fluorescence; actives lie on both sides. O15492+P09471. hit rate 0.38% among 220,000. binding response (% of control), % at 10 µM. AID 1441;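 active means below 25% or above 175%, edge rows of some plates excepted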;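 further: Galphao activated by GDP with aluminum fluoride before binding; 100% = wells without compound and 0% = beads without RGS; some results beyond the cut were filed as inactive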
Target sequence (O15492 whole entry, looked up): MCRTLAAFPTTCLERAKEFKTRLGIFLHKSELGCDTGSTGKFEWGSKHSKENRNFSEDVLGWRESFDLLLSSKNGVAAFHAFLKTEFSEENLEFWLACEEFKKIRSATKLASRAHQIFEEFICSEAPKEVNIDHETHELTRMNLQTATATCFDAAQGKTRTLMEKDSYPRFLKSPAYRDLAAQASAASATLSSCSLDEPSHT
Target sequence (P09471 whole entry, looked up): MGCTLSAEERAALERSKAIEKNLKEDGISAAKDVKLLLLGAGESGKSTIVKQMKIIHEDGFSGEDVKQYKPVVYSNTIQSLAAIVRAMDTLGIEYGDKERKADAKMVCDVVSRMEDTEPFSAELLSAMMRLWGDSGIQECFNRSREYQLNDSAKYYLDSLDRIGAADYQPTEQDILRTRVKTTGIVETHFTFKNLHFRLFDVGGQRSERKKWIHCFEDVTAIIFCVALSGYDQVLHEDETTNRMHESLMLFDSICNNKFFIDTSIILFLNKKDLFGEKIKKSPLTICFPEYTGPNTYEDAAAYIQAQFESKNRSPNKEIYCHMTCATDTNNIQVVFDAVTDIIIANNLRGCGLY
INS promoter inh – TRM-6 insulin promoter activity inhibition; TRM-6 cells (human fetal islet line), insulin promoter-eGFP reporter, imaging; reporter expression induced with tamoxifen; inhibition, % at 2 µM; hit rate 0.9% among 130,000;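 active means inhibition above the mean plus 3 SD, with well images judged a real hit on visual review, cut at about 60% in these data, passing the limit was not always enough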
GALR2 ag – activates the human galanin receptor 2; O43603; activation, %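 (tested at 5 µM)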; hit rate 0.48% among 140,000; GALR2-expressing cells, agonist activation read-out;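 active means above mean plus 3 SD of all compounds, about 5% in these data, not always enough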;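 further: 0% = vehicle buffer wells and 100% = reference agonist at full effect; tested in CHO reporter cells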
Target sequence (O43603 whole entry, looked up): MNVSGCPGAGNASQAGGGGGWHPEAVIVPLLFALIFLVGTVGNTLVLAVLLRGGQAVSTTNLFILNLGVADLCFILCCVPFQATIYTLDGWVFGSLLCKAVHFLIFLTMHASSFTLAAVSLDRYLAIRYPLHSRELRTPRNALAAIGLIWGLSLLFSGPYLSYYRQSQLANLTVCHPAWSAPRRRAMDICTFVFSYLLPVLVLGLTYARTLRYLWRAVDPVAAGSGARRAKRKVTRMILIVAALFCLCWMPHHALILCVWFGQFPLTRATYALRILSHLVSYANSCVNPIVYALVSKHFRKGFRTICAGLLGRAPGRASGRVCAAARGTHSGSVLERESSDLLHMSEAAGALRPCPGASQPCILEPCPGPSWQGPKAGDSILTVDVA
INS promoter inh cell count – second read-out of INS promoter inh, no call of its own (marks repeat the call); normalized cell count, %; measured here: cell count, toxicity; reference of the scale not given here;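 cells exposed to compound for 48 h; stained nuclei by imaging scaled within each plate; lower means fewer cells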
HSV augment primary fold – further read-out of HSV augment, marked with its call; fold increase; compound at 10 µM; measured here: primary screen fold increase 10 uM; tested in PC3 cells;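 GFP signal in the first replicate; 1 = infected wells without compound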
The depositor's hits bear a star; i = inactive; / = no result given.

A first look (15 entries):
SMILES	PKD1 inh	HSV augment	HSV augment primary fold	RGS16-Gao	INS promoter inh	INS promoter inh cell count	GALR2 ag
COc1cc(O)c(C(C)=O)cc1OC	0	i	0.78	37	52	95	-2.1
CCOc1ccc(NC(=O)CSc2nnc(COc3c(C)cccc3C)o2)cc1	-8	i	0.9	101	/	/	-1.7
CCN1CCN(C(=S)Nc2cccc(Cl)c2)CC1	2	i	0.94	103	6	100	/
CCCc1cc(=O)oc2cc(C)c3c(C)coc3c12	-1	i	0.86	92	-94	66	-2.0
CC(C)NCc1nnc(-c2ccccc2Cl)o1	0	i	1.1	96	47	81	/
CCOC(=O)C1=C(C)N(C)C(=S)NC1c1ccccc1Cl (stereo unspecified)	-4	i	1	107	/	/	-1.6
COc1ccc(/C(N)=N/OC(=O)c2ccco2)cc1	-5	i	1.1	99	/	/	/
CCSc1nsc(SCC)c1C(N)=O	3	i	0.91	105	/	/	-0.7
O=C1/C(=C\c2ccco2)SC(=S)N1C1CCS(=O)(=O)C1 (stereo unspecified)	/	i	0.96	106	/	/	/
Cc1cccc2cc(CN(CC3CCCO3)C(=O)c3cnccn3)c(=O)[nH]c12 (stereo unspecified)	-5	i	0.74	101	30	82	-1.7
O=C(CC1(O)C(=O)N(CCc2ccccc2)c2ccccc21)c1ccco1 (stereo unspecified)	6	i	1	100	/	/	-1.0
COC(=O)c1c(-n2cnnn2)sc(C)c1C	-7	i	0.87	99	/	/	-1.9
C/C(=N/NC(=O)c1ccoc1C)c1cccc(NC(=O)C2CC2)c1	12	i	1	46	-10	98	-0.6
Cc1ccc(C)n1-c1sc2c(c1C#N)CCC(C)C2 (stereo unspecified)	0	/	/	98	1	99	-2.2
CCS(=O)(=O)N1Cc2ccccc2CC1C(=O)Nc1nnc(SCc2ccc(F)cc2)s1 (stereo unspecified)	-3	i	0.94	109	0	110	-1.8

Main list, from the first entry:
SMILES	PKD1 inh	HSV augment	HSV augment primary fold	RGS16-Gao	INS promoter inh	INS promoter inh cell count	GALR2 ag
COc1cc(O)c(C(C)=O)cc1OC	0	i	0.78	37	52	95	-2.1
CCOc1ccc(NC(=O)CSc2nnc(COc3c(C)cccc3C)o2)cc1	-8	i	0.9	101	/	/	-1.7
CCN1CCN(C(=S)Nc2cccc(Cl)c2)CC1	2	i	0.94	103	6	100	/
CCCc1cc(=O)oc2cc(C)c3c(C)coc3c12	-1	i	0.86	92	-94	66	-2.0
CC(C)NCc1nnc(-c2ccccc2Cl)o1	0	i	1.1	96	47	81	/
CCOC(=O)C1=C(C)N(C)C(=S)NC1c1ccccc1Cl (stereo unspecified)	-4	i	1	107	/	/	-1.6
COc1ccc(/C(N)=N/OC(=O)c2ccco2)cc1	-5	i	1.1	99	/	/	/
CCSc1nsc(SCC)c1C(N)=O	3	i	0.91	105	/	/	-0.7
O=C1/C(=C\c2ccco2)SC(=S)N1C1CCS(=O)(=O)C1 (stereo unspecified)	/	i	0.96	106	/	/	/
Cc1cccc2cc(CN(CC3CCCO3)C(=O)c3cnccn3)c(=O)[nH]c12 (stereo unspecified)	-5	i	0.74	101	30	82	-1.7
O=C(CC1(O)C(=O)N(CCc2ccccc2)c2ccccc21)c1ccco1 (stereo unspecified)	6	i	1	100	/	/	-1.0
COC(=O)c1c(-n2cnnn2)sc(C)c1C	-7	i	0.87	99	/	/	-1.9
C/C(=N/NC(=O)c1ccoc1C)c1cccc(NC(=O)C2CC2)c1	12	i	1	46	-10	98	-0.6
Cc1ccc(C)n1-c1sc2c(c1C#N)CCC(C)C2 (stereo unspecified)	0	/	/	98	1	99	-2.2
CCS(=O)(=O)N1Cc2ccccc2CC1C(=O)Nc1nnc(SCc2ccc(F)cc2)s1 (stereo unspecified)	-3	i	0.94	109	0	110	-1.8
OC(CNCc1ccco1)COc1ccccc1 (stereo unspecified)	-6	i	0.94	95	/	/	-2.2
CN(C(=O)c1ccc(OC2CCN(CCc3ccccc3)CC2)cc1)C1CCOC1 (stereo unspecified)	-8	i	0.92	93	/	/	/
CCOCCN(C(=O)COC)c1cccc(OC)c1	5	i	0.98	102	-39	120	-0.3
CCCNC(=O)c1ccc2c(c1)ncn2-c1cc(C)cc(C)c1	0	i	0.89	66	20	86	/
CC(C)(C)C(=O)Nc1ccnc(-c2cccnc2)n1	-10	i	0.99	96	27	82	-0.8
O=C(Cc1ccc(Br)cc1)N1CCN(c2ccccc2O)CC1	2	i	0.55	102	-39	217	-1.6
OC1COC(OCc2ccccc2)C(O)C1O (stereo unspecified)	/	i	0.98	102	/	/	/
CN(C(=O)CC1C(=O)NCCN1Cc1ccoc1)C1CCOCC1 (stereo unspecified)	2	i	1.2	97	/	/	/
CCC(=O)Oc1oc(-c2ccccc2)nc1C=Nc1ccc(C)cc1	/	i	0.99	99	/	/	/
Cc1c(Cl)cccc1NC(=O)Nc1ccc(C(N)=O)cc1	1	i	1.1	105	-20	118	/
Cc1nn(CC(=O)N2CCN(C)CC2)c(=O)c2ccccc12	0	i	1.1	105	-18	78	/
Cc1ccsc1/C=C1\SC(N2CC(C)OC(C)C2)=NC1=O (stereo unspecified)	-4	i	1	101	-3	103	-0.3
Cn1cc(Cl)c(C(=O)NC(=S)Nc2sc3c(c2C#N)CCCCC3)n1	2	i	0.98	117	-35	1	-2.2
O=C(O)CCN1C(=O)c2ccc(NC(=O)c3ccco3)cc2C1=O	-8	i	1	102	/	/	/
CCOc1cc2c(C#N)c(N3CCNCC3)nc(N)c2c(N)n1	-2	i	0.95	100	-20	98	-2.6

Molecules shown so far that contain an aryl methoxy group (three):
SMILES	PKD1 inh	HSV augment	HSV augment primary fold	RGS16-Gao	INS promoter inh	INS promoter inh cell count	GALR2 ag
COc1cc(O)c(C(C)=O)cc1OC	0	i	0.78	37	52	95	-2.1
COc1ccc(/C(N)=N/OC(=O)c2ccco2)cc1	-5	i	1.1	99	/	/	/
CCOCCN(C(=O)COC)c1cccc(OC)c1	5	i	0.98	102	-39	120	-0.3

Other compounds
SMILES	PKD1 inh	HSV augment	HSV augment primary fold	RGS16-Gao	INS promoter inh	INS promoter inh cell count	GALR2 ag
Cc1cc(NC(=O)c2cccc(S(=O)(=O)N3CCCC3)c2)no1	2	i	0.95	102	28	136	-1.3
O=C(C(Sc1ccccc1)c1ccccc1)N1CCOCC1 (stereo unspecified)	0	i	0.92	102	/	/	-0.9
CC(=O)C1=C(C)NC(=O)NC1c1cc(Br)ccc1OCC#N (stereo unspecified)	-7	i	0.83	87	25	88	-2.1
Cc1cc(-c2cccs2)nc(-n2cccc2)n1	7	i	1.1	107	-11	96	-2.6
C/C(=N\NC1=NCCN1)c1ccc(N)c([N+](=O)[O-])c1	/	i	0.86	100	/	/	/
C=CCNC(=O)CSc1cc([N+](=O)[O-])cc(S(=O)(=O)Cc2ccccc2)c1	1	i	0.94	101	8	75	-1.2
CC(C)(C)C(=O)Nc1ccc(C(=O)OC2CCCCC2)cc1	-2	i	0.75	32	0	117	-3.3
O=C1CCC([N+](=O)[O-])C(c2ccc(Br)cc2)N1 (stereo unspecified)	-2	i	0.9	93	50	171	1.1
COc1ccc(C(=O)NCCn2cc(SCC(=O)N3CCOCC3)c3ccccc32)cc1	2	i	0.98	100	7	103	-0.6
CC(=O)Nc1ccc(NC(=O)CSc2nnc(-c3ccccc3)n2Cc2ccc3c(c2)OCO3)cc1	-5	i	0.87	86	-16	176	-1.5
O=C(ONc1ccc(N=NC(=O)c2ccccc2O)cc1)c1ccccc1	3	i	1.1	101	-19	72	-3.3
O=C(NCc1ccccc1)C1=C[C@@H](c2csc3ccccc23)C[C@@H](OCCCCO)O1	10	i	0.86	110	/	/	/
CC1(C)CC(=O)c2cnc(N)nc2C1	-1	i	0.97	100	37	101	-0.7
O=[N+]([O-])c1ccccc1Oc1cnc2ccccc2n1	-2	/	/	99	-8	132	/
CCOC(=O)c1c(NC(=O)Cn2nc(C(F)(F)F)cc2C)sc(C)c1C	14	i	0.93	104	-78	85	-0.3
FC(F)(F)c1cccc(N2CCN(Cc3cccnc3)CC2)c1	-9	i	1.1	104	/	/	-1.6
COc1ccc(C(CC(=O)O)NC(=O)C2CCCCC2)cc1 (stereo unspecified)	-2	i	1.1	103	21	148	-0.2
Nc1cc(-c2ccccc2)n2c(n1)nc1ccccc12	/	i	0.93	97	/	/	/
N#C/C(=C\N1CCOCC1)C(N)=O	/	i	0.78	102	/	/	/
N#Cc1nc(COc2ccccc2)oc1N1CCCCCC1	11	i	0.87	105	/	/	-2.9
CC(=O)c1cc(Cl)ccc1OC(=O)c1ccco1	-10	i	0.98	111	-14	193	0.3
CCOC(=O)C1CN(S(=O)(=O)c2ccccc2)C1	-3	i	0.85	103	-32	141	-1.0
Cc1cccc(OCCCC(=O)Nc2ccc(S(=O)(=O)N3CCCC3)cc2)c1	-8	i	1	107	-4	105	-3.8
Clc1ccc(Nc2ccccc2)nn1	/	i	1.1	90	/	/	/
CC(=O)N1CCCN(Cc2nc(C3(c4ccc(C)cc4)CCCC3)no2)CC1	-4	i	1.1	101	/	/	/
COc1ccccc1NC(=O)C1=C(C)Nc2nc(CCCO)nn2C1c1ccc2c(c1)OCO2 (stereo unspecified)	1	i	0.9	104	-26	121	-2.9
COC(=O)NC1CCS(=O)(=O)C1 (stereo unspecified)	2	i	1.1	102	/	/	0.3
Brc1ccc2[nH]c3c(NCc4ccccn4)ncnc3c2c1	/	i	0.96	103	/	/	/
COc1ccc(-c2[nH]ncc2CN(C)C(C)c2ccon2)cc1F (stereo unspecified)	6	i	1.1	96	/	/	/
Cc1cccc(-c2nnn(Cc3nnc(NC(=O)c4ccccc4)s3)n2)c1	-2	i	0.89	103	-27	141	-2.9
O=C(CN1CCN(S(=O)(=O)c2ccccc2[N+](=O)[O-])CC1)NC(=O)NCc1ccco1	3	i	0.84	84	22	90	/
CCOc1ccccc1C1C(C#N)=C(SCC(=O)OC)NC(=O)C1C(=O)OC (stereo unspecified)	-7	i	0.81	103	-3	102	-1.0
CC(=O)Nc1nnc(C)s1	-4	i	0.92	98	/	/	-2.3
CC1CCN(c2c(NCc3ccc(C(=O)NCCc4ccc(Cl)cc4)cc3)c(=O)c2=O)CC1	-4	/	/	60	-27	101	0.1
COC(=O)c1ccccc1NC(=O)CNC(=O)c1ccc(OC)cc1	1	i	0.94	104	-10	187	/
Cn1cc(CN2CCN(c3ccc(Cl)cn3)CC2)c(-c2ccccc2F)n1	0	i	1	99	/	/	/
Cc1ccccc1OCC(=O)Nc1nc2ccccc2[nH]1	8	i	0.85	104	/	/	/
N#C/C(=C/c1cn(-c2ccccc2)nc1-c1cccc(S(=O)(=O)N2CCCC2)c1)C(=O)NCc1ccco1	-7	i	0.8	110	7	88	0.4
Cc1nn(C)c(Oc2ccccc2)c1CCNS(=O)(=O)c1ccc(F)cc1	1	i	1	103	/	/	-2.4
O=C1N/C(=N\N=C\c2cccnc2)SC1Cc1ccc(SC(F)F)cc1 (stereo unspecified)	-9	i	0.82	94	-2	109	-0.9
Cc1cc(C)nc(NS(=O)(=O)c2ccc(NC(=O)c3ccc(S(=O)(=O)N4CC(C)OC(C)C4)cc3)cc2)n1 (stereo unspecified)	-7	i	0.95	105	/	/	-0.4
CCOc1ccccc1C(=O)NCC(=O)OCc1c(C)noc1C	-4	i	0.92	113	-26	127	0.2
CC(=O)N/N=C/c1cc([N+](=O)[O-])ccc1OCCOc1ccccc1	0	i	1	85	/	/	-3.1
